# BJeLR lethal: BJeLR cell viability loss; inhibition, % (test concentration not listed); BJeLR (HRASV12) viability, CellTiter-Glo ATP luminescence, 48 h; reference of the scale not given here; actives 0.17% (n = 300,000);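 active = replicate mean above 50%; inconclusive = above 50% but judged a plate artefact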;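 also: 50 nL library stock added to about 25 µL; numbers are from one replicate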
# Autofluor counter: counter-screen for toxin protease inhibitors: compound fluorescence; compound autofluorescence counterscreen, microsphere flow cytometry; stronger effect = higher value; fluorescence intensity (test concentration not listed); actives 3.1% (n = 360,000);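 active = at least 3 SD above the mean of all compounds, about 16000 in these data; inconclusive = too few beads counted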;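 also: 100 nL of 1 mM stock went into each well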
# Mtb hypoxia rep: inhibitors of hypoxia-regulated fluorescent reporter in Mycobacterium tuberculosis | M. tuberculosis hypoxia-regulated fluorescent reporter, fluorescence | AID 1159583 | fluorescence inhibition, % (test concentration not listed) | actives 0.1% (n = 300,000);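 active = 35 to 45% if threefold the growth effect, above 45% if 1.5-fold the growth effect; inactive = the rest, general growth blockers included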;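 also: wells of about 50 µL received 100 nL stock; 0% = vehicle wells and 100% = reference inhibitor wells; whole bacteria with a GFP reporter of the hypoxia response; strong numbers were not always called active; many hits fall short of the cut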
# RN4220 kill: kills Staphylococcus aureus RN4220; S. aureus RN4220 growth, OD600, 16 h; inhibition, % (test concentration not listed); actives 0.33% (n = 330,000); AID 1259311;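 active = z-score of -3 or lower and OD600 up to 0.18 on both plates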;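 also: plate controls were untreated cells for no effect and reference antibiotic for full effect; stock transfer was 100 nL into about 80 µL; one replicate is shown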
# ugtP null kill: growth inhibition of S. aureus ugtP deletion strain; S. aureus RN4220 ugtP deletion, OD600 growth, 16 h; some inactives read as strong as hits; growth inhibition, % (no concentration beside the values); actives 0.54% (n = 330,000);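 active = z-score under -3 and OD600 up to 0.15 on both plates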;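 also: plate controls were untreated wells for no effect and antibiotic for full effect; wells of about 80 µL received 100 nL stock; the first replicate is given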
# PrP UTR inh: inhibition of PrP 5' UTR reporter expression; cell-based PrP 5' UTR mRNA reporter, plate reader; inhibition, % (concentration not given with the values); actives 0.35% (n = 340,000); AID 488862;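 active = every replicate at 50% or more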;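 also: 0 = median of the neutral control wells; tested in H4 reporter cells; numbers are from one replicate; inactives centre near -14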
# Mtb hypoxia rep growth: recorded beside Mtb hypoxia rep, whose call it bears; growth inhibition, %; measured here: M. tuberculosis growth (absorbance);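 0% = vehicle and 100% = reference antibiotic; read after six days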
# Starred values were filed as active, the others as inactive; u = inconclusive; x = not tested or not shown.
SMILES,BJeLR lethal,Autofluor counter,Mtb hypoxia rep,Mtb hypoxia rep growth,RN4220 kill,ugtP null kill,PrP UTR inh
CCCN1C(=O)/C(=C/c2ccc(N3CCCC3)c(C)c2)NC1=S,7.1,18761*,4.6,9.9,-1.5,-12.9,1.9
CCCN(CCC)S(=O)(=O)c1ccc(C(=O)Nc2nc(-c3ccccc3)c(C(=O)OCC)s2)cc1,-15.5,2052,4.0,3.8,-5.6,17.0,-34.5
COC(=O)c1ccc(NC(=O)C2CCN(C(=O)c3cc(OC)c(OC)c(OC)c3)CC2)cc1,3.8,4708,x,x,0.7,-1.5,-4.7
CCOC(=O)N1CCN(C(=O)c2ccccc2NC(C)=O)CC1,x,3165,15.3,13.8,3.8,6.0,-41.9
O=C(NN=C1CCCC1)c1cc(Cl)cc(Cl)c1O,-2.4,4116,-1.8,10.4,7.1,6.1,-16.2
CCCNc1nc2ccccc2c(=O)[nH]1,-0.1,2336,-8.2,-1.0,2.8,3.8,-17.6
CC1CCc2sc(C(=O)NCc3ccc(F)cc3)cc2C1 (configuration not stated),0.2,24108*,15.0,12.5,-4.1,-1.7,-23.2
C=CCCC(Cc1ccc(F)cc1)C(=O)OCC1CCCN1C(=O)C(CC=C)CC(=O)NCCO (configuration not stated),x,x,6.8,8.1,4.2,-10.0,x
CCOc1ccc(/C=N/NC(=O)c2[nH]c3ccc(C)cc3c2C)cc1,6.1,3559,x,x,x,x,-13.4
O=C(NCCCn1ccnc1)/C(=C\c1cccnc1)NC(=O)c1ccco1,1.2,3789,17.0,-0.2,2.3,4.8,-18.3
O=C(N=C1SC2CS(=O)(=O)CC2N1c1ccc(Br)cc1)C1CCCO1 (configuration not stated),0.0,5177,-2.5,-4.6,0.4,0.6,-21.0
CCOC(=O)c1sc(NC(=O)C2CC2)cc1C,0.9,5107,6.4,0.0,2.7,2.7,-18.0
Cc1cccc(C)c1NC(=O)c1cc(-c2ccccn2)nc2ccccc12,2.3,3772,8.2,4.8,9.1,4.6,-6.1
CCN1CCN(C(CNC(=O)c2ccc3c(c2)OCO3)c2cccnc2)CC1 (configuration not stated),-7.5,5343,2.8,8.0,-7.9,-3.0,-10.6
Cc1ccc(C)c(-n2c(-c3ccco3)n[nH]c2=S)c1,5.2,4231,15.6,13.0,3.5,3.7,-12.0
Nc1ccc2nc3c(=O)n(CCc4ccccc4)c(=O)[nH]c3nc2c1,-13.1,x,-3.0,-3.0,0.0,6.6,x
CC(=O)N1CCN(c2ccc([N+](=O)[O-])cc2C=C2C(=O)NC(=O)NC2=O)CC1,0.4,2562,9.8,9.6,4.2,5.7,-23.1
COc1cc(/C=N/NC(=O)Cn2nnc3ccccc32)ccc1O,1.0,2004,x,x,x,x,5.2
CN(CC(=O)Nc1ccccc1Br)C(=O)COc1cccc2c1OC(C)(C)C2,5.8,5544,-5.1,-0.5,-1.2,-1.7,-17.3
CCOC(=O)C(C)n1cnc2scc(-c3ccc(C)cc3)c2c1=O (configuration not stated),-12.7,3813,-8.8,-5.5,0.9,-4.3,-28.5
O=C(Nc1c(C(=O)O)oc2ccc(Br)cc12)c1ccccc1,-8.3,5209,5.1,7.1,-8.2,-3.8,-20.5
COC(=O)C1=Nc2ccccc2/C1=C\c1c(O)n(-c2cc(OC)ccc2OC)c(=O)[nH]c1=O,-4.1,2776,12.0,-2.5,3.9,4.2,-13.2
CCOc1ncccc1C(=O)Nc1ccccc1C(=O)NCc1ccc2c(c1)OCO2,0.6,4502,0.2,0.8,-0.9,-7.0,-31.9
CCc1ccc(NC(=O)Nc2cnccn2)cc1,3.2,5760,7.6,-12.8,1.6,-0.9,-51.1
Cc1cccc(C)c1NC(=O)COC(=O)CCC(=O)c1cccs1,0.1,4343,0.2,2.0,0.5,-1.5,-68.3

# Part of the list above, showing only BJeLR lethal and Mtb hypoxia rep growth.
structure	BJeLR lethal	Mtb hypoxia rep growth
CCOC(=O)C(C)n1cnc2scc(-c3ccc(C)cc3)c2c1=O (configuration not stated)	-12.7	-5.5
Nc1ccc2nc3c(=O)n(CCc4ccccc4)c(=O)[nH]c3nc2c1	-13.1	-3.0
CCOC(=O)c1sc(NC(=O)C2CC2)cc1C	0.9	0.0

# More entries follow.
SMILES,BJeLR lethal,Autofluor counter,Mtb hypoxia rep,Mtb hypoxia rep growth,RN4220 kill,ugtP null kill,PrP UTR inh
COc1ccc(OC)c(S(=O)(=O)NCc2ccccc2)c1,6.6,16582*,8.5,-3.6,3.5,0.7,-11.3
CCSC1(SCC)N=C(N)C2(C#N)C(c3ccccc3)NC3=C(CCC3)C12C#N (configuration not stated),-2.5,3635,11.5,6.1,-8.0,-7.2,-8.9
COn1c(=O)c(-c2cccs2)[n+]([O-])c2ccccc21,8.4,4981,x,x,-1.3,-9.3,-13.3
CC(C)CCn1c(SCc2ccc(Cl)cc2)nc2c1c(=O)[nH]c(=O)n2C,-3.6,9266,19.0,5.2,9.4,-3.0,-3.3
O=C1c2cc(F)ccc2-n2c1nc1ccccc1c2=O,8.2,4114,x,x,x,x,-52.9
CCN(CC(=O)Nc1c(F)cccc1F)C(=O)CSCC(=O)Nc1cc(C)on1,-7.7,6481,-4.1,10.3,-0.8,-2.1,-18.2
NCCC(=O)N1c2ccccc2Sc2ccc(Cl)cc21,3.4,4263,1.4,4.5,2.9,9.4,14.3
CCC(C(=O)O)n1c2ccccc2c2cn[nH]c(=O)c21 (configuration not stated),7.6,2809,6.9,-0.1,0.8,5.7,-17.2
COc1ccc(C(=O)OCC(=O)NCc2ccccc2)c(OC)c1OC,1.7,2601,2.2,2.7,0.9,1.1,-15.7
CC1(C)OC2C(COS(=O)(=O)O)OC(n3ccc(=O)[nH]c3=O)C2O1 (configuration not stated),x,x,-1.2,1.3,6.5,-1.4,x
OCCOCCNc1ncnc2c1c(-c1ccccc1)cn2-c1ccccc1,-3.2,6111,14.6,6.2,5.7,-5.9,-3.3
COC(=O)CSc1nc2sc3c(c2c(=O)n1-c1ccccc1)CCN(C)C3,0.6,3544,x,x,2.0,6.4,6.0
O=C(O)c1ccc(N/N=C/C=C/c2ccc([N+](=O)[O-])o2)cc1,-22.3,7106,x,x,x,x,-26.2
C#CCCc1ccccc1C=[N+](C)[O-],x,x,-2.9,-0.5,-2.4,-15.7,x
COc1ccccc1CC(=O)Nc1ccccc1C(=O)O,-10.4,10896,-8.9,11.5,-0.2,-4.4,-14.1
CS(=O)(=O)c1cccc(-c2nnc(NC(=O)CCS(=O)(=O)c3ccccc3)o2)c1,0.2,u,7.8,0.0,2.9,4.4,-4.9
Brc1ccc(CNCc2cccs2)cc1,-5.3,2184,10.4,-2.9,4.8,9.0,-7.8
CCOC1(c2ccccc2)OC(=O)c2ccccc21 (configuration not stated),15.4,2432,16.0,10.6,3.3,12.3,11.0
Cc1ccc(C(=O)Nc2cccc(S(=O)(=O)N3CCCC3)c2)o1,x,2913,-3.7,1.1,5.0,5.4,-27.4
CN1CCN(C(=O)C2(NC(=O)NCc3ccccc3)CCCCC2)CC1,-0.3,2442,20.9,8.0,-14.0,-7.1,-20.3
O=C(Nc1cc(Cl)cc(Cl)c1)c1coc(=O)c(Br)c1,2.0,3837,x,x,x,x,-28.7
Cc1ccc(-n2ncc3c(=O)n(CC(=O)OCc4ccccc4)cnc32)cc1,7.1,9766,8.0,2.2,3.2,3.2,-32.0
CCCCCCN1C(=O)C(O)=C(C(C)=O)C1c1ccccc1[N+](=O)[O-] (configuration not stated),x,2697,-1.7,4.1,9.6,17.1,-24.5
O=C(COC(=O)CNC(=O)c1ccccc1F)NC12CC3CC(CC(C3)C1)C2,x,3065,11.5,0.7,7.9,-0.8,-8.7
CCCCS/C(=C(/C#N)C(N)=O)c1cc2c([nH]1)CCCC2,1.8,22456*,11.7,11.8,15.1,3.9,0.0

# (cont.)
SMILES,BJeLR lethal,Autofluor counter,Mtb hypoxia rep,Mtb hypoxia rep growth,RN4220 kill,ugtP null kill,PrP UTR inh
Cc1nn(-c2ccccc2)c(N2CCCC2)c1/C=N/NC(=O)c1cc2ccccc2cc1O,12.3,2701,x,x,x,x,-39.3
O=C(Nc1ccc(C(=O)N2CCCCC2)cc1)c1ccc([N+](=O)[O-])cc1,-2.9,5798,5.4,1.0,0.4,1.9,-18.5
CC(C)C[C@H](NC(=O)NCc1ccc(F)cc1)C(=O)O,3.4,3590,17.1,-3.1,6.0,2.8,-1.4
CC1(CC(=O)O)C(=O)N=C2C=CC=CN21 (configuration not stated),-8.0,10738,2.6,6.4,3.1,-4.6,-20.7
CCCc1cc(=O)[nH]c2nnc(SCC(=O)NC3CCCCC3)n12,-0.8,u,2.9,2.0,5.6,4.1,-12.7
Cc1cc(C)nc(Nc2n[nH]c(-c3ccccc3Cl)n2)n1,1.5,5840,-2.6,11.6,2.8,5.5,-54.3
CC1CCN(C(=O)c2ccc3c(=O)n4c(nc3c2)CCCCC4)CC1,3.0,5728,-5.8,5.7,-1.4,-1.4,9.6
O=C(CCC1CCCC1)N1CCN(S(=O)(=O)Cc2ccccc2)CC1,-2.2,3988,9.6,5.5,4.5,3.8,-14.6
CCOc1ccccc1-n1c(=S)sc2c(=O)n(-c3ccccc3)c(=S)[nH]c21,5.4,3029,-7.7,-3.1,8.5,5.2,-18.0
COCCNC(=O)c1onc(CSc2ccc(F)c(F)c2)c1C(=O)NCCOC,-2.0,3332,20.4,8.2,8.0,-3.9,-15.9
O=C(COC(=O)[C@H](Cc1ccccc1)NC(=O)c1ccco1)Nc1ccccc1,x,4058,12.7,10.0,4.7,1.3,-17.0
O=C(c1cc(-c2ccccc2)on1)N1CCCC1,-8.8,7029,x,x,9.3,8.8,-126.3
CN(C)C=NC(=S)Nc1ccccc1F,x,x,-1.7,3.3,-13.8,-5.0,x
O=C(NCCCN1CCOCC1)c1cc(-c2ccccc2)on1,1.3,7473,3.1,-6.7,5.6,8.0,-58.8
CCCCOC(=O)c1ccc(NC(=O)c2c(O)[nH]c(=O)[nH]c2=O)cc1,-1.1,3567,18.8,6.1,12.3,2.6,-5.4
O=c1cc(-c2ccccc2Cl)oc2ccc([N+](=O)[O-])c(O)c12,11.0,2857,2.0,7.6,99.1*,99.7*,-13.9
Cc1csc(Nc2ccc(Cl)cc2)[n+]1-c1ccc(Cl)cc1,11.8,4773,0.1,13.4,-7.7,94.3*,-20.7
N#CC1=C2SCN(c3ccccc3)CN2C(=O)CC1c1cccs1 (configuration not stated),-6.9,8742,4.5,4.2,-0.9,-4.1,-19.3
COC(=O)c1cn(NC(=O)c2cccc(N(C)C)c2)c(=O)c2ccccc12,1.4,6205,1.0,12.3,5.7,7.1,-6.6
CCNC(=S)NNC(=O)c1cc(-c2ccccc2C)nc2ccccc12,14.1,10802,7.3,11.0,4.3,5.5,1.1
Nc1ccc2nc(-c3cc(Cl)c(N)c(Cl)c3)[nH]c2c1,4.5,3821,0.6,-4.9,0.5,-9.4,-74.4
Cc1ccc(-c2nnn(CC(=O)N(c3cccc(O)c3)C(C(=O)NC(C)(C)C)c3cccs3)n2)o1 (configuration not stated),6.0,16505*,-5.5,0.0,-2.2,-6.8,-11.7
CC(C)(C)S(=O)N1Cc2ccc(CO)cc2[C@H]1CCO (some centres not stated),x,3780,-2.5,9.8,3.7,1.1,-16.2
COc1ccc(COC(=O)C2=C(C)NC(=O)NC2c2ccc(F)cc2)cc1 (configuration not stated),-5.9,4022,11.5,-3.5,-4.7,-1.0,-7.8
COC(=O)c1ccc(OCC(O)CN2CCc3cc(OC)c(OC)cc3C2c2ccccc2)cc1 (configuration not stated),-1.8,5787,-15.5,3.1,-0.4,6.5,-27.1
CN(C)CC(C(=O)c1ccccc1)c1ccccc1 (configuration not stated),7.5,2403,-0.2,-0.4,-0.4,34.0,9.8
Nc1cccc(-c2cc(-c3ccccc3)nc(-c3cccc(N)c3)n2)c1,2.6,2056,4.6,-0.8,-9.6,-15.8,2.7
CCCCn1c(CN2CCOCC2)nc2c1c(=O)n(C)c(=O)n2C,5.5,6034,9.3,11.3,-10.1,-5.0,-20.2

# Some of these compounds in order of number of heavy atoms, low to high.
SMILES,BJeLR lethal,Autofluor counter,Mtb hypoxia rep,Mtb hypoxia rep growth,RN4220 kill,ugtP null kill,PrP UTR inh
CN(C)CC(C(=O)c1ccccc1)c1ccccc1 (configuration not stated),7.5,2403,-0.2,-0.4,-0.4,34.0,9.8
O=C(NCCCN1CCOCC1)c1cc(-c2ccccc2)on1,1.3,7473,3.1,-6.7,5.6,8.0,-58.8
CCCCOC(=O)c1ccc(NC(=O)c2c(O)[nH]c(=O)[nH]c2=O)cc1,-1.1,3567,18.8,6.1,12.3,2.6,-5.4

# Outcome played no part in choosing rows; about 4% have a hit in one of these screens.
